# Screens as filed in PubChem.
# Yeast UUG start = modulators of start codon recognition fidelity in yeast | 350,000 compounds, 0.13% hits | S. cerevisiae UUG-firefly luciferase reporter, luminescence/redox ratio | activity score, % at 18.7 µM;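 active = replicate mean at a twofold rise or more, about +100% in these data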;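 note: firefly luciferase made from a UUG start codon reports start codon fidelity; reporter light over untreated wells divided by growth signal over untreated wells; some hits fall short of that in this replicate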
# eIF4H inh = inhibitors of RNA binding by human eIF4H; Q15056; eIF4H fluorescence polarization binding assay; inhibition, % at 35 µM; 290,000 compounds, 0.94% hits; AID 2012;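 active = 50% or more with normal probe brightness, or confirmed in later tests; inconclusive = above 50% with abnormal brightness, or retests that disagree; inactive = below 50% or failed in later tests; about a fifth of its hits are not listed in these tables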;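 note: calls also rest on retests at 20 µM and on dose response follow-up; 0% = protein and probe with vehicle and 100% = probe without protein; strong numbers were not always called active; many hits fall short of the cut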
# CSC inhib = cancer stem cell inhibition; cancer stem cell-like cells viability, luminescence; AID 2717; 300,000 compounds, 1.1% hits; inhibition, % at 7.5 µM;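 active = mean at 75% or more and at least half the replicates too; inconclusive = mean and replicates disagree; tested in HMLE shEcad cells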;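 note: 0% = median of negative and 100% = median of positive control wells; the first replicate is given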
# MT1-MMP act inh = MT1-MMP (human) activation inhibition. HT1080 RFP-PRO-GFP cells, GFP/RFP ratio fluorescence, overnight; percent of plate control window, DMSO zero. GFP/RFP ratio change, % at 20 µM. 360,000 compounds, 0.061% hits;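 active = GFP/RFP ratio change of at least 30% with cell ATP level not reduced by more than half and red fluorescence within 50% of control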; note: strong numbers were not always called active
#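 Assay system: HT1080 RFP-PRO-GFP cells | Dosing: 20 µM single dose, 1% DMSO | Incubation: Cells overnight before dosing, compound overnight, 37 °C, 5% CO2 | Evaluation: GFP/RFP fluorescence ratio | Control set: DMSO-only wells and HT1080 RFP-L50D-GFP cell wells as references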
# HIV Env fusion = HIV envelope-mediated fusion inhibition. 360,000 compounds, 1.1% hits. HeLa-JRFL Env/CEM21 cell fusion, luciferase. inhibition, % at 12.3 µM;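 active = mean replicate inhibition score of at least 50 and every replicate individually at or above 50; inconclusive = only one of the two criteria met; inactive = mean below 50 and not all replicates reaching 50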;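 note: 0% = plate neutral controls and 100% = maraviroc near 300 nM; one replicate is shown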
# PABP FP inh = PABP-poly(A) binding inhibition; inhibition, % at 35 µM; PABP-poly(A) RNA binding, fluorescence polarization; P11940; 290,000 compounds, 1% hits;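 active = 50% or more with normal probe brightness, or confirmed in later tests; inconclusive = above 50% with abnormal brightness, or retests that disagree; inactive = below 50% or failed in later tests; about a fifth of its hits are not listed in these tables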;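 note: calls also rest on retests at 20 µM and on dose response follow-up; controls were probe without protein and protein plus probe with vehicle; some compounds called inactive have numbers as strong as hits; many hits fall short of the cut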
# Rce1 inh = yeast Ras-converting enzyme inhibition. 290,000 compounds, 0.27% hits. calls only. yeast membranes, quenched prenylated peptide cleavage fluorescence. Q03530;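 active = fall in fluorescence gain of 50% or more versus controls, with final raw signal at or below 3038400; inconclusive = same 50% fall but final raw signal above 3038400; inactive = fall in fluorescence gain under 50%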;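 note: plate controls were neutral control wells for no effect and wells lacking membranes for full effect; tested at 10 µM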
# Target sequence (Q03530 whole entry, looked up): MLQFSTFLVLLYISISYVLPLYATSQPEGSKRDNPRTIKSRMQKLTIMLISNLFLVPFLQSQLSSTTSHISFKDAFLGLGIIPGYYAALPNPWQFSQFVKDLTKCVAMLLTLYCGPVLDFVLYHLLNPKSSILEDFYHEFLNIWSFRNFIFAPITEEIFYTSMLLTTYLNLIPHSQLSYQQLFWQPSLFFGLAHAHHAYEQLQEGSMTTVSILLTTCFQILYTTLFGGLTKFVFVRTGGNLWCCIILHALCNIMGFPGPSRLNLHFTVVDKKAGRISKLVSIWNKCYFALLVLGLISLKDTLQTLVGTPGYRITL
# eIF4H inh retest = also measured in eIF4H inh; calls as there; inhibition, %; compound at 20 µM; confirmation average;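 mean of two retest wells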
# PABP FP inh retest = second read-out of PABP FP inh, no call of its own (marks repeat the call); inhibition, %; compound at 20 µM; confirmation repeats;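 mean of two retest wells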
# MT1-MMP act inh RFP = also measured in MT1-MMP act inh; calls as there; RFP signal change, %; measured here: RFP expression control read;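 0 = vehicle wells; hits needed this value within 50% of zero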
# * = called active by the depositor; i = inactive; ? = inconclusive; · = not tested or not shown.
SMILES,Yeast UUG start,eIF4H inh,CSC inhib,MT1-MMP act inh,MT1-MMP act inh RFP,HIV Env fusion,PABP FP inh,Rce1 inh,others
O/N=C(\CN1CCCCC1)c1ccccc1,-11,-10,5,-5,0,15,-6,i,
CC(C)(C)C(=O)CSc1nc2c(c(-c3cccs3)c1C#N)CCC2,·,-5,47,-2,-1,-7,8,i,
CN(C)S(=O)(=O)c1ccc(NC(=O)C2CC(=O)N(Cc3ccccc3)C2)cc1 (stereo unspecified),·,6,-2,0,3,-4,-1,i,
Cc1cc2oc(=O)cc(CN3CCC(C)CC3)c2cc1C,10,4,-11,1,2,1,-1,i,
Cc1ccc(CN2CCN(Cc3ccc(OCCO)cc3)CC2CCO)o1 (stereo unspecified),·,1,-1,-1,1,-4,8,i,
COC(=O)c1c(C)nc2ccccc2c1C(=O)O,·,-8,1,0,1,·,-4,i,
CN1CCN(c2ccc(Cl)cc2NC(=O)c2ccc([N+](=O)[O-])cc2)CC1,-20,-5,0,-10,0,7,0,i,
COc1ccccc1COCC(O)CN(Cc1ccco1)Cc1ccccc1O (stereo unspecified),·,-9,7,0,-1,7,-4,i,
OCCn1c(Cl)nc2ccccc21,9,14,-16,0,6,0,-11,i,
C[C@@H]1CCCCO[C@H](CN(C)C(=O)c2ccncc2)[C@H](C)CN([C@@H](C)CO)C(=O)c2cc(NC(=O)c3ccccc3)ccc2O1,19,·,·,-3,0,-9,·,·,
O=C(Nc1ccc(Cl)c(Cl)c1)O/N=C/c1ccncc1,-18,2,75*,0,-18,·,-4,i,
Cc1nc(SCC(=O)NCCc2ccccc2)n[nH]1,-29,2,-11,2,3,·,4,i,
CCc1ccccc1NC(=O)C1C(c2ccccc2)C1(Cl)Cl (stereo unspecified),-16,-5,20,-2,0,-3,5,i,
CC(C)=CCC/C(C)=C/CC/C(C)=N/O,-18,3,-4,-4,4,-49,12,i,
O=C(/C=C/c1ccc(Br)cc1)NC(=S)N1CCOCC1,·,3,3,0,1,-5,6,·,
COc1ccc(NC(=O)CCC(=O)OCc2ccc(Br)cc2)cc1,-13,4,19,1,0,6,-2,i,
Cc1ccc(C(=O)N2CCN(c3ccc(NC(=O)c4cc(C)cc(C)c4)cc3)CC2)cc1,-12,-6,-33,9,-17,6,-6,i,
Cc1onc(-c2ccccc2)c1C(=O)N1CCC(CO)(Cc2ccccc2)CC1,-5,-6,-4,-2,2,3,5,i,
CCN(CC)c1ccc(-n2cc3c(=O)n(C)c(=O)n(C)c3c2)cc1,-13,-5,27,-4,-5,·,4,i,
CC1(C)CC(NC(=O)C2CCCCC2)CC(C)(C)N1,-16,14,-7,0,0,14,2,i,
Cc1ccccc1NC(=O)C1Cc2ccccc2C(=O)O1 (stereo unspecified),3,-7,-33,6,7,-320,-5,i,
CN1C(=O)c2ccc(S(=O)(=O)c3ccc(C(=O)O)cc3)cc2C1=O,·,-4,2,4,2,·,-9,i,
S=C(NCc1ccccc1)N1CCN(c2ccccc2)CC1,·,9,3,2,1,6,5,i,
CCN(C(=O)COC(=O)c1ccc(Cl)nc1)C1CCS(=O)(=O)C1 (stereo unspecified),·,-7,·,-1,2,12,5,i,
CC(C)CC(NC(=O)c1ccccc1)C(=O)OCC(=O)Nc1ccc(S(N)(=O)=O)cc1 (stereo unspecified),-12,-10,-15,3,6,-5,-8,i,
CC(=O)Nc1ccc(S(=O)(=O)NCCN2CCOCC2)cc1,-4,-11,6,-1,0,-16,-4,i,
CN(C)C(CNc1ccc(C(N)=O)cc1[N+](=O)[O-])c1ccccc1 (stereo unspecified),-26,-7,·,1,-4,1,4,i,
CCc1c(C#N)sc(C(N)=O)c1CC,-3,-2,-14,-12,-10,28,-9,i,
O=C(NCc1ccncc1)C(=O)NCC1OCCCN1S(=O)(=O)c1cc(F)ccc1F (stereo unspecified),-14,12,-6,-2,-2,-5,-10,i,
Cc1ccccc1-c1ocnc1C(=O)Nc1ccccc1NC(=O)c1ccccn1,-13,3,6,-4,-4,5,4,i,
COc1cc(/C=C/C(=O)OCC(=O)NCc2ccco2)ccc1OC(F)F,-6,10,-12,2,2,-1,13,i,
COc1ccc(-n2c(SCC(N)=O)nc3sc4c(c3c2=O)CCN(C)C4)cc1,7,1,-10,-5,5,·,14,i,
COc1cc([N+](=O)[O-])ccc1NC(=S)N1CCN(c2ccccn2)CC1,·,-5,-7,1,-4,?,1,i,
Clc1cccc(Cl)c1CNC1CCCC1,-12,-4,-4,6,7,·,19,i,
COc1ccc(OC)c(NC(=O)Cn2cc(C#N)c3cc(Br)ccc32)c1,-14,-11,-12,1,-6,27,-2,i,
Cc1cc2c(c(C)c1Br)C(c1ccc3c(c1)OCO3)CC(=O)O2 (stereo unspecified),-10,·,·,4,5,-19,·,·,
CCc1cccc(NC(=O)CC2SC(N3CCCC3)=NC2=O)c1 (stereo unspecified),-3,·,-14,1,3,9,·,·,
O=[N+]([O-])c1cccc(C2NCC(c3ccccc3Cl)c3c2[nH]c2ccccc32)c1 (stereo unspecified),·,0,131*,-3,-6,23,12,·,
CCCn1c(N)c(C(=O)COC(=O)c2cccc(S(=O)(=O)N3CCOCC3)c2)c(=O)[nH]c1=O,-11,·,·,6,3,-6,·,·,
CN(C)C=NC(=O)/C(C#N)=C/c1ccccc1,·,16,-12,0,5,-8,-3,i,
CCOc1ccc(S(=O)(=O)NN=C2CCN(C(C)=O)CC2)cc1,-11,4,-3,-3,-2,2,-11,i,
Cc1cc(C(=O)N2CCCC(C(=O)c3cccc(C(F)(F)F)c3)C2)nc(C)n1 (stereo unspecified),16,-10,2,0,1,7,-17,i,
CCSc1nnc(NC(=O)COc2cccc3ccccc23)s1,-11,0,-8,-1,1,·,-1,i,
CCCc1cc(=O)[nH]c(SCc2cc(=O)oc3c(C)c(C)ccc23)n1,-16,-15,-9,-1,0,7,-5,i,
Cc1ccc2nc(SCC(=O)N3CCN(C(=O)c4ccco4)CC3)[nH]c2c1,-2,-12,-6,4,3,-1,0,i,
COc1ccc(OCC(=O)Nc2ncc3c(n2)CC(C)(C)CC3=O)cc1,13,-4,-2,6,3,-5,2,i,
FC(F)(F)c1cccc(N2CCN(CC3CC=CCC3)CC2)c1 (stereo unspecified),-4,5,-8,3,5,·,0,i,
CC(=O)Nc1ccc(CN2CCN(CCC(C)C)C(CCO)C2)cc1 (stereo unspecified),-9,67,1,2,9,16,42,i,eIF4H inh retest=19;PABP FP inh retest=14
O=C(Nc1cccc(-c2csc(Nc3ccc(Cl)cc3)n2)c1)c1ccccc1,-14,-6,8,11,-8,-2,-4,i,
COC(=O)c1ccc(OC(=O)CCN2c3ccccc3Sc3ccccc32)cc1,·,-2,-9,1,6,-403,-4,i,
O=C(COC(=O)CNS(=O)(=O)c1ccc(F)c(F)c1F)NCCc1ccccc1,-7,5,-5,-4,2,3,2,i,
CC(=O)Nc1ccc(S(=O)(=O)NCC(=O)NCCc2ccc(S(N)(=O)=O)cc2)cc1,-1,5,1,0,5,7,2,i,
NC(=NCc1ccco1)NC(=O)c1ccc(Cl)cc1,·,-12,-10,3,4,-29,5,i,
COc1ccc2oc(=O)c(C(=O)Nc3cccc(C)c3)cc2c1,·,-11,13,-7,-1,-44,-4,·,
Cc1cccc(NC(=S)NCCC(c2ccccc2)c2ccccc2)c1,·,-5,39,-1,-4,10,-9,i,
COc1ccc(Br)cc1S(=O)(=O)N1CCOCC1,-15,-5,12,-3,0,·,-3,i,
CC(NC(=O)Cc1ccc(S(=O)(=O)N2CCOCC2)s1)c1ccc(Cl)cc1Cl (stereo unspecified),9,3,-8,1,-1,12,3,i,
O=C(CCSc1ccccc1)NC(=O)COC(=O)c1ccc(OC(F)F)cc1,·,-7,16,10,13,-17,3,i,
CCOC(=O)c1c(C)[nH]c(C(=O)CN2C(=O)NC3(CCCC3)C2=O)c1C,·,-10,-7,-1,3,-34,-8,i,
O=C(Nc1nc(-c2ccco2)c(-c2ccco2)s1)c1ccc(F)cc1F,-24,·,·,2,10,-14,·,·,
# Carrying on:
SMILES,Yeast UUG start,eIF4H inh,CSC inhib,MT1-MMP act inh,MT1-MMP act inh RFP,HIV Env fusion,PABP FP inh,Rce1 inh,others
Cc1c(Cl)c([N+](=O)[O-])nn1Cc1ccc(C(=O)NN)o1,-16,10,-7,5,3,-10,4,i,
CC(C)(C)NC(=O)c1cccc(NC(=O)c2ccc3c(c2)C(=O)N(C(C)(C)C)C3=O)c1,-5,-3,2,1,-18,3,6,i,
COC1=C(C)C(O)=C(C(=O)/C=C/c2ccccc2)C(=O)C1(C)C,-12,-6,53,-4,-23,-86,-5,i,
O=C(/C=C/c1cccc(Cl)c1)NCc1ccccc1,·,6,8,-3,1,6,-12,i,
O=C(COC(=O)c1ccc2c(c1)OCO2)NC1CCS(=O)(=O)C1 (stereo unspecified),7,-2,-5,4,4,·,-12,i,
c1cn2c(NC3CCCC3)c(-c3ccc(N4CCOCC4)cc3)nc2cn1,-18,-2,-9,1,-5,-33,-3,i,
COc1cc(OC)cc(C(=O)NCC(=O)NCC(c2ccco2)N2CCCCC2)c1 (stereo unspecified),-25,·,·,-1,-1,0,·,·,
O=C(c1ccco1)N1CCN(C(=O)c2cnn3cccnc23)CC1,-20,5,-8,4,5,·,4,i,
Cc1cc(C)c(N)cc1C,-22,·,-2,1,6,·,·,·,
Cc1ccc(NC(=O)CCn2c(=O)oc3ccccc32)cc1,-18,12,-3,-1,0,-73,12,i,
Cc1ccc(N2CC(C(=O)Nc3nnc(SCc4cccnc4)s3)CC2=O)cc1 (stereo unspecified),1,4,-8,4,6,2,6,i,
CC1CC(C)CN(S(=O)(=O)c2cccc3nonc23)C1 (stereo unspecified),-22,-5,-3,1,1,3,8,i,
O=S(=O)(NCc1ccc2c(c1)OCO2)c1cccc2cccnc12,-6,3,29,-2,7,-52,-2,i,
CCCCCCCCOc1ccc(C(=O)O)cc1,-5,·,-4,0,5,·,·,·,
CC1CCc2nn(CC(=O)NCCC3=CCCCC3)cc2C1 (stereo unspecified),-6,-7,-17,2,0,-10,-8,i,
Cc1cc(C=C2C(=O)c3ccccc3C2=O)c(C)n1-c1ccc(Cl)cc1,·,63*,·,-6,-6,·,11,i,eIF4H inh retest=84*;PABP FP inh retest=49
Cn1c(-c2ccc3c(c2)OCO3)cnc1NCc1cccc(Cl)c1,-7,-6,6,6,2,·,27,i,

# Structural class: the compounds so far with two or more sulfur atoms.
SMILES,Yeast UUG start,eIF4H inh,CSC inhib,MT1-MMP act inh,MT1-MMP act inh RFP,HIV Env fusion,PABP FP inh,Rce1 inh,others
CC(C)(C)C(=O)CSc1nc2c(c(-c3cccs3)c1C#N)CCC2,·,-5,47,-2,-1,-7,8,i,
COc1ccc(-n2c(SCC(N)=O)nc3sc4c(c3c2=O)CCN(C)C4)cc1,7,1,-10,-5,5,·,14,i,
CCSc1nnc(NC(=O)COc2cccc3ccccc23)s1,-11,0,-8,-1,1,·,-1,i,
CC(=O)Nc1ccc(S(=O)(=O)NCC(=O)NCCc2ccc(S(N)(=O)=O)cc2)cc1,-1,5,1,0,5,7,2,i,
CC(NC(=O)Cc1ccc(S(=O)(=O)N2CCOCC2)s1)c1ccc(Cl)cc1Cl (stereo unspecified),9,3,-8,1,-1,12,3,i,
Cc1ccc(N2CC(C(=O)Nc3nnc(SCc4cccnc4)s3)CC2=O)cc1 (stereo unspecified),1,4,-8,4,6,2,6,i,
